A1 apoptosis 2: blocks A1, raising caspase activity; MEF A1-2A-BIM cells, caspase-Glo luminescence, 3 h; percent of clofoctol response, DMSO zero; caspase activation, % (concentration not given with the values); 24,000 tested, under 10 active; in the data active = caspase activation above about 5.9%;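 also: wells of about 30 µL received 50 nL stock; the first replicate is given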
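Material: mouse embryonic fibroblasts co-expressing A1 and BIM (A1-2A-BIM), primed for A1 dependence / Quantity: 2500 cells/well / Buffer or medium: RPMI-1640 growth medium with 10% FBS / Doses: 50 nL compound per well, pinned / Schedule: 3 h compound exposure at 37 °C / Signal: Caspase-Glo luminescence (DEVD substrate) / Measure: Caspase-3/7 activation, seen as rise in luminescence signal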
An asterisk follows results filed as active.

SMILES	A1 apoptosis 2
C[C@@H]1CN([C@@H](C)CO)C(=O)c2cccc(NC(=O)C3CCOCC3)c2O[C@@H]1CN(C)CC1CCCCC1	0.2
O=C(C1=C[C@H](c2coc3ccccc3c2=O)C[C@H](OCc2ccc(CO)cc2)O1)N1CCCCCCC1	0.0
CC(C)(C)[C@H]1C=C(C(N)=O)O[C@@H](OCc2ccc(CO)cc2)C1	0.3
C[C@@H]1CN([C@H](C)CO)C(=O)c2cc(NC(=O)Nc3ccccc3)ccc2O[C@@H](C)CCCCO[C@@H]1CN(C)C(=O)c1ccccc1	-0.2
C[C@H](CO)N1C[C@H](C)[C@H](CN(C)C(=O)CCC(F)(F)F)OCCCC[C@H](C)Oc2ccc(NS(=O)(=O)c3ccccc3)cc2C1=O	-1.8
CNC[C@@H]1Oc2ccc(NS(=O)(=O)c3ccc(Cl)cc3)cc2C(=O)N([C@H](C)CO)C[C@@H]1C	-0.1
C[C@@H]1CN([C@@H](C)CO)C(=O)c2cc(NC(=O)CCCCCC(=O)Nc3ccccc3N)ccc2O[C@@H]1CN(C)C(=O)Nc1ccccc1	0.1
C[C@@H]1CN([C@H](C)CO)C(=O)c2cc(NS(=O)(=O)c3cccs3)ccc2O[C@H]1CN(C)CC1CC1	-0.9
COc1ccc(NC(=O)N(C)C[C@H]2Oc3ccc(NS(=O)(=O)c4ccc(C)cc4)cc3C(=O)N([C@H](C)CO)C[C@@H]2C)cc1	1.2
COc1ccc(S(=O)(=O)N(C)C[C@H]2Oc3ccc(NC(=O)NC4CCCCC4)cc3C(=O)N([C@@H](C)CO)C[C@H]2C)cc1	0.1
C[C@@H]1CN([C@@H](C)CO)C(=O)c2cccc(NC(=O)C3CCCCC3)c2O[C@H]1CN(C)C(=O)Nc1ccc(C(F)(F)F)cc1	-0.3
C[C@@H]1CN([C@@H](C)CO)C(=O)c2cccc(NC(=O)c3ccc(-c4nccs4)cc3)c2O[C@@H]1CN(C)Cc1ccc(-c2ccccc2)cc1	-1.3
Cc1ccc(S(=O)(=O)Nc2cccc3c2O[C@@H](CN(C)CC2CC2)[C@@H](C)CN([C@H](C)CO)C3=O)cc1	-0.1
CNC[C@H]1Oc2c(NC(=O)NC(C)C)cccc2C(=O)N([C@H](C)CO)C[C@@H]1C	-1.2
C[C@@H]1CN([C@H](C)CO)C(=O)c2cccc(NS(=O)(=O)c3ccccc3)c2O[C@@H]1CN(C)Cc1ccc(C(=O)O)cc1	-0.1
COc1ccc(CN(C)C[C@@H]2OCCCC[C@@H](C)Oc3ccc(NS(=O)(=O)c4cn(C)cn4)cc3C(=O)N([C@@H](C)CO)C[C@H]2C)cc1	-0.6
O=C(NCc1nc2ccccc2[nH]1)C1=C[C@H](c2ccc(Br)cc2)C[C@H](OCCCCO)O1	1.0
COc1ccc(S(=O)(=O)N(C)C[C@H]2OCCCC[C@H](C)Oc3ccc(NC(=O)NC4CCCCC4)cc3C(=O)N([C@H](C)CO)C[C@@H]2C)cc1	-0.9
COc1ccc(S(=O)(=O)Nc2ccc3c(c2)C(=O)N([C@H](C)CO)C[C@H](C)[C@@H](CN(C)C)O3)cc1	-0.7
C[C@H]1CN([C@@H](C)CO)C(=O)c2cccc(NC(=O)Nc3ccc4c(c3)OCO4)c2O[C@@H]1CN(C)CC1CC1	-0.3
CC(C)CN1C(=O)[C@@]2(c3ccc([N+](=O)[O-])cc3)CC(=O)N(CC3C4CC5CC(C4)CC3C5)[C@@H]2c2ccc(CO)cc21 (some centres not stated)	1.0
COc1ccc(S(=O)(=O)Nc2ccc3c(c2)C(=O)N([C@@H](C)CO)C[C@H](C)[C@H](CN(C)C(=O)Nc2ccc(C(F)(F)F)cc2)O3)cc1	1.3
COc1ccc(S(=O)(=O)Nc2ccc3c(c2)C(=O)N([C@H](C)CO)C[C@H](C)[C@@H](CN(C)S(=O)(=O)c2ccc(OC)cc2)O3)cc1	0.8
O=C(O)CCCCCC(=O)N/N=C/c1ccccc1Cl	0.5
C[C@@H]1CN([C@H](C)CO)C(=O)c2cccc(NC(=O)c3nc4ccccc4s3)c2O[C@@H]1CN(C)Cc1ccc(-c2ccccc2)cc1	-0.9
Cc1noc(C)c1S(=O)(=O)N(C)C[C@H]1OCCCC[C@H](C)Oc2ccc(NS(C)(=O)=O)cc2C(=O)N([C@@H](C)CO)C[C@@H]1C	0.6
C[C@@H]1CN([C@@H](C)CO)C(=O)Cc2cc(NS(=O)(=O)c3ccc(Cl)cc3)ccc2O[C@H]1CN(C)C(=O)Nc1ccccc1	-0.6
Cc1ccc(S(=O)(=O)N(C)C[C@H]2Oc3ccc(NC(=O)C4CC4)cc3CC(=O)N([C@@H](C)CO)C[C@@H]2C)cc1	-0.1
C[C@@H]1CN([C@@H](C)CO)C(=O)c2cc(NC(=O)c3ccccc3)ccc2O[C@@H](C)CCCCO[C@H]1CN(C)CC1CCCCC1	-0.2
C[C@@H]1CN([C@@H](C)CO)C(=O)c2cc(NC(=O)Nc3ccccc3)ccc2O[C@@H](C)CCCCO[C@H]1CN(C)C(=O)Cc1ccccc1	1.5
Cc1noc(C)c1S(=O)(=O)Nc1ccc2c(c1)C(=O)N([C@@H](C)CO)C[C@@H](C)[C@@H](CN(C)C(=O)NC1CCCCC1)O2	-0.4
Cc1ccc(S(=O)(=O)Nc2cccc3c2O[C@@H](CN(C)Cc2ccccc2)[C@@H](C)CN([C@@H](C)CO)C3=O)cc1	0.1
Cc1noc(C)c1S(=O)(=O)Nc1ccc2c(c1)C(=O)N([C@@H](C)CO)C[C@H](C)[C@H](CN(C)Cc1ccccc1)OCCCC[C@@H](C)O2	-0.6
C[C@@H]1CN([C@H](C)CO)C(=O)c2cc(NC(=O)CCC(F)(F)F)ccc2O[C@@H](C)CCCCO[C@H]1CN(C)C(=O)C1CCCCC1	0.0
C[C@@H]1CN([C@@H](C)CO)C(=O)c2cc(NC(=O)CCN3CCOCC3)ccc2O[C@H]1CN(C)S(C)(=O)=O	-0.2
Cc1cc(C(=O)Nc2cccc3c2O[C@H](CN(C)S(C)(=O)=O)[C@@H](C)CN([C@@H](C)CO)C3=O)n(C)n1	-1.0
C[C@@H]1CN([C@@H](C)CO)C(=O)c2cc(N(C)C)ccc2O[C@@H](C)CCCCO[C@@H]1CN(C)Cc1ccc(C(F)(F)F)cc1	-1.2
COc1ccc(NC(=O)Nc2ccc3c(c2)C(=O)N([C@@H](C)CO)C[C@@H](C)[C@@H](CN(C)C(=O)CCC(F)(F)F)OCCCC[C@@H](C)O3)cc1	0.4
COc1cc(Br)c(/C=N/NC(=O)CCCCCCC(=O)O)cc1OC	0.5
Cc1noc(C)c1NC(=O)N(C)C[C@H]1Oc2ccc(N(C)C)cc2CC(=O)N([C@H](C)CO)C[C@@H]1C	0.0
C[C@H]1CN([C@@H](C)CO)C(=O)c2cc(NS(=O)(=O)c3cn(C)cn3)ccc2O[C@@H]1CN(C)C(=O)NC1CCCCC1	2.1
C[C@@H]1CN([C@H](C)CO)C(=O)c2cc(NS(C)(=O)=O)ccc2O[C@@H](C)CCCCO[C@H]1CN(C)S(=O)(=O)c1ccc(F)cc1	0.2
Cc1noc(C)c1S(=O)(=O)N(C)C[C@H]1OCCCC[C@H](C)Oc2ccc(NS(=O)(=O)c3ccc(F)cc3)cc2C(=O)N([C@H](C)CO)C[C@@H]1C	0.0
COc1ccc(CN(C)C[C@@H]2Oc3c(NS(=O)(=O)c4ccc(OC)cc4)cccc3C(=O)N([C@H](C)CO)C[C@H]2C)cc1	0.2
C[C@@H]1CN([C@@H](C)CO)C(=O)c2cccc(NC(=O)Nc3ccc(F)cc3)c2O[C@H]1CN(C)Cc1ccc(C(F)(F)F)cc1	-1.2
C[C@@H]1CN([C@H](C)CO)C(=O)c2cc(NC(=O)CCN3CCOCC3)ccc2O[C@@H]1CN(C)C(=O)Nc1cccc2ccccc12	-0.8
C[C@@H]1CN([C@@H](C)CO)C(=O)c2cccc(NC(=O)c3nc4ccccc4s3)c2O[C@H]1CN(C)Cc1ccc2c(c1)OCO2	-1.0
Cc1ccc(S(=O)(=O)N(C)C[C@@H]2Oc3c(NS(C)(=O)=O)cccc3C(=O)N([C@@H](C)CO)C[C@H]2C)cc1	0.6
Cc1noc(C)c1S(=O)(=O)Nc1cccc2c1O[C@H](CN(C)Cc1ccccc1)[C@H](C)CN([C@H](C)CO)C2=O	1.5
C[C@H](CO)N1C[C@H](C)[C@@H](CN(C)C(=O)NC2CCCCC2)OCCCC[C@H](C)Oc2ccc(NC(=O)Nc3cccc4ccccc34)cc2C1=O	1.5
Cc1noc(C)c1NC(=O)N(C)C[C@@H]1Oc2ccc(NS(=O)(=O)c3c(C)noc3C)cc2CC(=O)N([C@@H](C)CO)C[C@@H]1C	1.5
Cc1noc(C)c1S(=O)(=O)N(C)C[C@H]1Oc2ccc(NS(=O)(=O)c3cn(C)cn3)cc2CC(=O)N([C@H](C)CO)C[C@H]1C	-1.2
C[C@@H]1CCCCO[C@H](CN(C)Cc2ccncc2)[C@@H](C)CN([C@H](C)CO)C(=O)c2cc(NS(C)(=O)=O)ccc2O1	-1.7
C[C@@H]1CCCCO[C@@H](CN(C)S(=O)(=O)c2cn(C)cn2)[C@H](C)CN([C@@H](C)CO)C(=O)c2cc(NC(=O)Nc3ccccc3)ccc2O1	-0.1
O=S(=O)(N[C@@H]1CCCN(Cc2ccc(OCCO)cc2)C1)c1ccc(-c2ccccc2)cc1	-0.2
Cc1noc(C)c1S(=O)(=O)Nc1ccc2c(c1)CC(=O)N([C@@H](C)CO)C[C@H](C)[C@H](CN(C)S(=O)(=O)c1ccccc1)O2	0.3
C[C@H]1CN([C@@H](C)CO)C(=O)CCCn2nncc2CO[C@H]1CN(C)Cc1ccccc1	0.2
C[C@H](CO)N1C[C@H](C)[C@@H](CN(C)Cc2ccccc2)OCCCC[C@H](C)Oc2ccc(NS(=O)(=O)c3cccs3)cc2C1=O	-1.0
CC(C)NC(=O)Nc1ccc2c(c1)C(=O)N([C@H](C)CO)C[C@H](C)[C@H](CN(C)C(=O)Cc1ccccc1)OCCCC[C@@H](C)O2	1.3
C[C@H](CO)N1C[C@H](C)[C@@H](CN(C)C(=O)Nc2cccc3ccccc23)Oc2ccc(NC(=O)C3CC3)cc2CC1=O	0.5

10 consecutive records from above:
SMILES	A1 apoptosis 2
Cc1noc(C)c1NC(=O)N(C)C[C@@H]1Oc2ccc(NS(=O)(=O)c3c(C)noc3C)cc2CC(=O)N([C@@H](C)CO)C[C@@H]1C	1.5
Cc1noc(C)c1S(=O)(=O)N(C)C[C@H]1Oc2ccc(NS(=O)(=O)c3cn(C)cn3)cc2CC(=O)N([C@H](C)CO)C[C@H]1C	-1.2
C[C@@H]1CCCCO[C@H](CN(C)Cc2ccncc2)[C@@H](C)CN([C@H](C)CO)C(=O)c2cc(NS(C)(=O)=O)ccc2O1	-1.7
C[C@@H]1CCCCO[C@@H](CN(C)S(=O)(=O)c2cn(C)cn2)[C@H](C)CN([C@@H](C)CO)C(=O)c2cc(NC(=O)Nc3ccccc3)ccc2O1	-0.1
O=S(=O)(N[C@@H]1CCCN(Cc2ccc(OCCO)cc2)C1)c1ccc(-c2ccccc2)cc1	-0.2
Cc1noc(C)c1S(=O)(=O)Nc1ccc2c(c1)CC(=O)N([C@@H](C)CO)C[C@H](C)[C@H](CN(C)S(=O)(=O)c1ccccc1)O2	0.3
C[C@H]1CN([C@@H](C)CO)C(=O)CCCn2nncc2CO[C@H]1CN(C)Cc1ccccc1	0.2
C[C@H](CO)N1C[C@H](C)[C@@H](CN(C)Cc2ccccc2)OCCCC[C@H](C)Oc2ccc(NS(=O)(=O)c3cccs3)cc2C1=O	-1.0
CC(C)NC(=O)Nc1ccc2c(c1)C(=O)N([C@H](C)CO)C[C@H](C)[C@H](CN(C)C(=O)Cc1ccccc1)OCCCC[C@@H](C)O2	1.3
C[C@H](CO)N1C[C@H](C)[C@@H](CN(C)C(=O)Nc2cccc3ccccc23)Oc2ccc(NC(=O)C3CC3)cc2CC1=O	0.5

(cont.)
SMILES	A1 apoptosis 2
CNC[C@H]1Oc2c(NC(=O)c3cnccn3)cccc2C(=O)N([C@@H](C)CO)C[C@H]1C	0.2
Cc1ccc(S(=O)(=O)N(C)C[C@H]2Oc3ccc(NC(=O)Nc4ccc(C(F)(F)F)cc4)cc3CC(=O)N([C@H](C)CO)C[C@H]2C)cc1	0.0
C[C@@H]1CCCCO[C@@H](CN(C)C(=O)NC2CCCCC2)[C@H](C)CN([C@@H](C)CO)C(=O)c2cc(NS(=O)(=O)c3ccccc3)ccc2O1	1.8
Cc1ccc(S(=O)(=O)Nc2ccc3c(c2)C(=O)N([C@@H](C)CO)C[C@@H](C)[C@@H](CN(C)Cc2ccc(C(=O)O)cc2)OCCCC[C@@H](C)O3)cc1	-0.2
C[C@H]1CCCCO[C@@H](CN(C)C(=O)Nc2ccc(F)cc2)[C@@H](C)CN([C@@H](C)CO)C(=O)c2cc(NS(=O)(=O)c3ccc(F)cc3)ccc2O1	-0.8
C[C@H](CO)N1C[C@H](C)[C@H](CN(C)CC2CCCCC2)Oc2ccc(NC(=O)Nc3cccc4ccccc34)cc2C1=O	0.1
Cc1noc(C)c1NC(=O)N(C)C[C@H]1Oc2ccc(NS(C)(=O)=O)cc2CC(=O)N([C@@H](C)CO)C[C@@H]1C	-0.4
C[C@@H]1CN([C@H](C)CO)C(=O)Cc2cc(NC(=O)CCCCCC(=O)Nc3ccccc3N)ccc2O[C@@H]1CN(C)CC1CCCCC1	-0.9
C[C@@H]1CN([C@@H](C)CO)C(=O)c2cc(NC(=O)CCCCCC(=O)Nc3ccccc3N)ccc2O[C@@H]1CN(C)Cc1ccc2c(c1)OCO2	1.1
CC(C)NC(=O)Nc1ccc2c(c1)C(=O)N([C@H](C)CO)C[C@@H](C)[C@H](CN(C)C(=O)CCCN(C)C)OCCCC[C@@H](C)O2	-0.5
Cc1noc(C)c1NC(=O)Nc1ccc2c(c1)C(=O)N([C@H](C)CO)C[C@@H](C)[C@H](CN(C)C(=O)Nc1cccc3ccccc13)OCCCC[C@H](C)O2	-0.6

Screening results (PubChem BioAssay)

Not all compounds are listed; count on the stated rates, not on these rows.
